Screening results as filed in PubChem BioAssay.
MT1-MMP act inh = MT1-MMP (human) activation inhibition; P50281; HT1080 RFP-PRO-GFP cells, GFP/RFP ratio fluorescence, overnight; percent of plate control window, DMSO zero; GFP/RFP ratio change, % at 20 µM; 360,000 tested, 0.061% active; AID 651647;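 active = GFP/RFP ratio change of at least 30% with cell ATP level not reduced by more than half and red fluorescence within 50% of control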; also: strong numbers were not always called active
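Material: RFP-PRO-GFP reporter HT1080 cells. Dosing: single-point 20 µM compound, 1% DMSO. Controls: DMSO and RFP-L50D-GFP cell wells. Timing: cells overnight before dosing, compound overnight, 37 °C, 5% CO2. Measure: GFP/RFP fluorescence ratio.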
Yeast UUG start = alters start codon recognition fidelity in yeast; S. cerevisiae UUG-firefly luciferase reporter, luminescence/redox ratio; activity score, % at 18.7 µM; 350,000 tested, 0.13% active; AID 602363;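 active = replicate mean at a twofold rise or more, about +100% in these data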;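 also: firefly luciferase made from a UUG start codon reports start codon fidelity; reporter light over untreated wells divided by growth signal over untreated wells; some hits fall short of that in this replicate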
PABP FP inh = PABP-poly(A) binding inhibition. P11940. 290,000 tested, 1% active. PABP-poly(A) RNA binding, fluorescence polarization. AID 2014. inhibition, % at 35 µM;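 active = 50% or more with normal probe brightness, or confirmed in later tests; about a fifth of its hits are not listed in these tables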;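 also: calls also rest on retests at 20 µM and on dose response follow-up; controls were probe without protein and protein plus probe with vehicle; some compounds called inactive have numbers as strong as hits; many hits fall short of the cut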
eIF4H FP inh = inhibitors of RNA binding by human eIF4H; Q15056; eIF4H fluorescence polarization binding assay; inhibition, % at 35 µM; 290,000 tested, 0.94% active; AID 2012;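 active = 50% or more with normal probe brightness, or confirmed in later tests; about a fifth of its hits are not listed in these tables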;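 also: calls also rest on retests at 20 µM and on dose response follow-up; 0% = protein and probe with vehicle and 100% = probe without protein; strong numbers were not always called active; many hits fall short of the cut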
CSC inhib = blocks cancer stem cells; cancer stem cell-like cells viability, luminescence; inhibition, % at 7.5 µM; 300,000 tested, 1.1% active;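 active = mean at 75% or more and at least half the replicates too; tested in HMLE shEcad cells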;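 also: 0% = median of negative and 100% = median of positive control wells; the first replicate is given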
Rce1 inh = blocks yeast Ras-converting enzyme; AID 2563; Q03530; 290,000 tested, 0.27% active; calls only; yeast membranes, quenched prenylated peptide cleavage fluorescence;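 active = fall in fluorescence gain of 50% or more versus controls, with final raw signal at or below 3038400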;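 also: plate controls were neutral control wells for no effect and wells lacking membranes for full effect; tested at 10 µM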
Target sequence (Q03530 whole entry, looked up): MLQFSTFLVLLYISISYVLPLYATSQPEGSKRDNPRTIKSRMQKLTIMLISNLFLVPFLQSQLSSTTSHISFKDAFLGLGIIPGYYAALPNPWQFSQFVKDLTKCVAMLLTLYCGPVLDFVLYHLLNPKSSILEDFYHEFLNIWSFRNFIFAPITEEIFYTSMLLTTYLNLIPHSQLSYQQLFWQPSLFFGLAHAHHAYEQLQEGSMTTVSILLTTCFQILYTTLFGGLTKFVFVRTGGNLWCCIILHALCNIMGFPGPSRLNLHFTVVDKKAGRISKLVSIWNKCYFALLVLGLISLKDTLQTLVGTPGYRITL
HIV Env fusion = blocks HIV Env-driven cell-cell fusion; HeLa-JRFL Env/CEM21 cell fusion, luciferase; inhibition, % at 12.3 µM; 360,000 tested, 1.1% active;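 active = mean replicate inhibition score of at least 50 and every replicate individually at or above 50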;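 also: 0% = plate neutral controls and 100% = maraviroc near 300 nM; one replicate is shown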
eIF4H FP inh retest = also measured in eIF4H FP inh; calls as there; inhibition, %; compound at 20 µM; confirmation average;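 mean of two retest wells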
PABP FP inh retest = second read-out of PABP FP inh, no call of its own (marks repeat the call); inhibition, %; compound at 20 µM; confirmation repeats;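 mean of two retest wells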
MT1-MMP act inh RFP = further read-out of MT1-MMP act inh, marked with its call; RFP signal change, %; measured here: RFP expression control read;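 0 = vehicle wells; hits needed this value within 50% of zero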
Starred values were filed as active, the others as inactive; i = inactive; nt = not tested or not shown. The order is random. Share with any hit: about 2.9%.

SMILES	MT1-MMP act inh	MT1-MMP act inh RFP	Yeast UUG start	PABP FP inh	eIF4H FP inh	CSC inhib	Rce1 inh	HIV Env fusion	others
CCc1cc2c(=O)n(CC(=O)NCCc3ccc(OC)c(OC)c3)cnc2s1	-3	2	nt	-9	1	-4	i	4
CN(C(=O)C1CCC(=O)N(CCc2ccc(Cl)cc2)C1)C1CCOCC1 (stereo unspecified)	-4	3	-5	-9	-8	-2	i	nt
O=C(NCCCCCCNC(=O)N1CCCCCC1)N1CCCCCC1	7	13	-1	0	2	0	i	nt
S=C(N/N=C/c1ccc2ncccc2c1)Nc1cccnc1	5	2	nt	-8	1	7	i	-10
COc1ccc(-n2nc3c(c2NC(=O)c2cc(Br)ccc2Cl)CS(=O)C3)cc1 (stereo unspecified)	-3	-1	-15	-4	4	-4	i	7
COCCN1C(=O)c2ccccc2C(C(=O)NCc2ccco2)C1c1c[nH]c2ccccc12 (stereo unspecified)	-2	1	6	-3	-8	0	i	nt
CCN(Cc1ccc(C#CCCO)cc1)CC1CCCN(CCc2cccc(F)c2)C1 (stereo unspecified)	1	-4	-17	0	1	12	i	11
Cc1cc(C)cc(NC(=O)c2sc3nc(C)cc(C)c3c2N)c1	2	-2	-16	-4	-3	7	i	-118
CN(CC(=O)NCCc1ccc(S(N)(=O)=O)cc1)c1ccccc1	-1	4	nt	-8	-15	-8	nt	-8
Cc1ccc(C)c(NC(=S)N(Cc2ccco2)C(C)c2cccs2)c1 (stereo unspecified)	1	2	-11	12	1	-7	i	12
COc1ccccc1CNC(=O)CCNS(=O)(=O)c1cccc2nonc12	1	2	-15	0	-4	-7	i	-33
COc1ccccc1CNS(=O)(=O)c1c(C(=O)N2CCCCC2)c(C)n(C)c1C	-3	0	2	4	5	-11	i	-8
Oc1ccc(N2CCN(C(=S)NCCc3ccccc3)CC2)cc1	-1	-3	nt	14	2	1	i	nt
CCOC(=O)c1sc(=S)n(-c2ccc(OC)cc2)c1C	-3	0	-4	0	-5	-2	i	5
COc1ccc(CCNC(=O)CS(=O)Cc2nc(-c3ccccc3Cl)oc2C)cc1OC (stereo unspecified)	3	-2	-13	17	-4	-12	i	8
O=C(NCCCNc1ccc(C(F)(F)F)cc1[N+](=O)[O-])c1cc(F)c(F)cc1Cl	9	-4	-11	9	-6	nt	i	nt
Cc1nc(SCC(O)CCl)c([N+](=O)[O-])[nH]1 (stereo unspecified)	3	3	-15	19	-6	10	i	nt
O=C(COC(=O)/C=C/c1ccc(F)cc1)NC1CCCC1	9	0	5	nt	nt	nt	nt	-41
C[C@@H]1CN(S(=O)C(C)(C)C)[C@H](CCO)/C1=C\c1ccccc1 (stereo partly specified)	3	0	1	nt	nt	nt	nt	-16
COCCNC(=O)c1cccc(OC2CCN(Cc3ccccc3OCCO)CC2)c1	-2	-2	-17	7	14	4	i	nt
c1ccc(-n2c(-c3cccs3)nc3nc4ccccc4nc32)cc1	12	-1	nt	-2	-10	6	i	nt
COc1ccccc1C(=O)Nc1c(C(=O)N(CCN(C)C)Cc2ccco2)oc2ccccc12	-3	-2	0	-5	-3	7	i	17
N#Cc1c(NC(=O)/C=C/c2ccco2)sc2c1CCCC2	13	6	nt	10	32	54	i	-310
COc1cccc(CN(C)Cc2nc3cc(C(F)(F)F)ccc3c(=O)[nH]2)c1	0	-2	-12	0	3	-3	i	10
CC(C)(C)c1cc(NC(=O)COC(=O)C2CC2)n(-c2ccccc2)n1	2	8	-6	0	-8	-8	nt	-50
Cc1ccc(S(=O)(=O)n2cnc3ccccc32)cc1	4	4	-20	35	2	-13	i	18
N#CC1(CCCN2CCCCC2)c2ccccc2CCc2ccccc21	0	3	-8	nt	nt	2	nt	-45
COc1ccc([C@H]2CC(=O)C=C(/C=C/c3ccc(C(F)(F)F)cc3)C2)cc1	0	1	-10	nt	nt	34	nt	7
Cc1ccccc1NC(=O)CN1C(=O)NC2(CCCCCCC2)C1=O	2	4	-5	nt	nt	nt	nt	-7
COc1ccc(N(C)S(=O)(=O)c2c(C)noc2C)c(OC)c1	-2	10	nt	-4	1	-6	i	5
CC1CCCC(C)N1CCCNC(=O)c1ccc2nc(N3CCCCC3)sc2c1 (stereo unspecified)	3	6	-13	4	-4	-5	i	-1
C=Cc1ccc(Cn2c(C)c(C(=O)NCc3cccc([N+](=O)[O-])c3)sc2=O)cc1	0	-15	-11	nt	nt	nt	nt	4
OCCNc1nc(N2CCN(c3ccccc3)CC2)nc2ccccc12	7	2	-13	3	-23	-5	i	-21
COC(=O)[C@H](Cc1ccccc1)NC(=O)NCCc1ccccc1F	0	3	-2	-4	-4	-9	i	12
Cc1ccccc1N(CC(=O)NCc1ccco1)C(=O)CCC(=O)Nc1nccs1	1	3	nt	0	-1	-7	i	2
O=C(CCC(=O)c1ccccc1)Nc1ccc(C(=O)O)cc1	1	0	-2	37	-11	15	i	-3
O=C(Nc1ccc(OC(F)F)c(Cl)c1)[C@@H]1CCCN1C(=O)c1cccs1	2	3	nt	-1	5	nt	i	23
COc1ccc(NC(=O)NC2CCN(C(C)C)CC2)c(OC)c1	2	0	nt	-2	-4	-11	i	-131
CCOC(=O)c1[nH]c(=O)[nH]c1CNc1ccccc1C#N	1	6	-28	20	-6	-12	i	-5
CCNc1ccc([N+](=O)[O-])cc1	-1	-3	nt	-6	3	-6	i	1

Reprinted at random: seven compounds from above, in no set order.
SMILES	MT1-MMP act inh	MT1-MMP act inh RFP	Yeast UUG start	PABP FP inh	eIF4H FP inh	CSC inhib	Rce1 inh	HIV Env fusion	others
S=C(N/N=C/c1ccc2ncccc2c1)Nc1cccnc1	5	2	nt	-8	1	7	i	-10
CCc1cc2c(=O)n(CC(=O)NCCc3ccc(OC)c(OC)c3)cnc2s1	-3	2	nt	-9	1	-4	i	4
COc1ccc(N(C)S(=O)(=O)c2c(C)noc2C)c(OC)c1	-2	10	nt	-4	1	-6	i	5
Cc1cc(C)cc(NC(=O)c2sc3nc(C)cc(C)c3c2N)c1	2	-2	-16	-4	-3	7	i	-118
CCNc1ccc([N+](=O)[O-])cc1	-1	-3	nt	-6	3	-6	i	1
CCOC(=O)c1sc(=S)n(-c2ccc(OC)cc2)c1C	-3	0	-4	0	-5	-2	i	5
O=C(CCC(=O)c1ccccc1)Nc1ccc(C(=O)O)cc1	1	0	-2	37	-11	15	i	-3

Entries above that contain an NH in an aromatic ring (four):
SMILES	MT1-MMP act inh	MT1-MMP act inh RFP	Yeast UUG start	PABP FP inh	eIF4H FP inh	CSC inhib	Rce1 inh	HIV Env fusion	others
COCCN1C(=O)c2ccccc2C(C(=O)NCc2ccco2)C1c1c[nH]c2ccccc12 (stereo unspecified)	-2	1	6	-3	-8	0	i	nt
Cc1nc(SCC(O)CCl)c([N+](=O)[O-])[nH]1 (stereo unspecified)	3	3	-15	19	-6	10	i	nt
COc1cccc(CN(C)Cc2nc3cc(C(F)(F)F)ccc3c(=O)[nH]2)c1	0	-2	-12	0	3	-3	i	10
CCOC(=O)c1[nH]c(=O)[nH]c1CNc1ccccc1C#N	1	6	-28	20	-6	-12	i	-5

Further structures:
SMILES	MT1-MMP act inh	MT1-MMP act inh RFP	Yeast UUG start	PABP FP inh	eIF4H FP inh	CSC inhib	Rce1 inh	HIV Env fusion	others
COc1ccc(NC(=O)COC(=O)COc2ccc(Br)cc2)cc1	1	1	nt	-4	-22	-1	i	-8
Fc1cccc(CSc2ccc(-c3ccco3)nn2)c1	0	-2	5	-3	36	44	i	-121
COc1ccc(/C=N/NS(C)(=O)=O)c(OC)c1	4	3	-7	-4	-11	-8	i	10
COc1ccccc1N1CCN(C(=O)c2cccc(N3C(=O)C4C5C=CC(C5)C4C3=O)c2)CC1 (stereo unspecified)	0	-7	5	-6	3	-12	i	-5
Cc1ccc(C)c(NC(=O)CN(C)C(=O)CSCc2c(C)noc2C)c1	-6	-1	nt	nt	nt	-5	i	0
COc1cccc(C(=O)OCn2nnc3ccccc3c2=O)c1OC	-3	4	2	11	9	-4	i	24
Cc1cccc(C(CC(=O)NCCc2ccccc2)c2ccccc2)c1O (stereo unspecified)	-2	-6	6	-6	-8	18	i	4
O=C(N/N=C/c1cccnc1)c1ccc([N+](=O)[O-])cc1	7	1	nt	-9	3	-7	i	nt
O=CN/N=C/c1c(O)ccc2ccccc12	-106	-5	nt	76	91	16	i	-14	eIF4H FP inh retest=6;PABP FP inh retest=29
COc1cccc(NC(=O)Nc2nccc(C)n2)c1	1	8	nt	-1	-3	-6	i	5

In the list so far, these have bromine:
SMILES	MT1-MMP act inh	MT1-MMP act inh RFP	Yeast UUG start	PABP FP inh	eIF4H FP inh	CSC inhib	Rce1 inh	HIV Env fusion	others
COc1ccc(-n2nc3c(c2NC(=O)c2cc(Br)ccc2Cl)CS(=O)C3)cc1 (stereo unspecified)	-3	-1	-15	-4	4	-4	i	7
COc1ccc(NC(=O)COC(=O)COc2ccc(Br)cc2)cc1	1	1	nt	-4	-22	-1	i	-8

Next compounds:
SMILES	MT1-MMP act inh	MT1-MMP act inh RFP	Yeast UUG start	PABP FP inh	eIF4H FP inh	CSC inhib	Rce1 inh	HIV Env fusion	others
CCn1c(-c2nn(-c3ccc(C)cc3)ccc2=O)n[nH]c1=S	-3	-4	nt	-11	-4	-1	i	18
CCn1c(O)c(C=NCCN2CCOCC2)sc1=S	-1	6	-18	5	4	-8	i	nt
COc1ccc(NC(=O)CSc2nc(=O)n(CCN3CCOCC3)c3c2CCC3)cc1	0	1	-11	nt	nt	-8	i	-11
COc1ccc(NC(=O)Cn2c(=O)cnc3ccccc32)cc1S(=O)(=O)N1CCCCC1	7	1	nt	nt	nt	-10	i	-1
Cc1cccn2c(CNCC3OCCc4ccccc43)c(C(=O)N3CCCCC3)nc12 (stereo unspecified)	-5	3	nt	-8	7	-1	i	-24
O=C(Cc1c(O)c2ccccc2[nH]c1=O)OC1CCCCC1	1	-1	-4	2	1	-3	i	nt
COc1ccc(NC(=O)CSCc2cc(=O)n3c(C)csc3n2)cc1	2	1	-9	-7	14	2	i	2
O=c1cc[nH]c2cccc(Cc3ccccc3)c12	5	-2	-1	-5	-5	-4	i	-17
CC(=O)Nc1nc(COc2ccccc2)cs1	0	1	-12	-15	-7	-1	i	-91
